High-throughput results deposited in PubChem BioAssay by National Center for Advancing Translational Sciences (NCATS).
TRPML1 blocker – blocks the human TRPML1 channel; activity change, negative = inhibition, % (concentration not given with the values); 390,000 compounds, 0.02% hits; TRPML1-inducible cells, Ca2+ dye fluorescence, FDSS; active compounds read low; inhibition of EC80 agonist-evoked calcium signal; Q9GZU1; in the data active means activity change below about -50%; inconclusive means about -30% to -50%; inactive means above about -30%;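 also: stimulus is agonist 54-4 at its EC80 concentration; % is scaled to controls: 0 for no effect and ±100 for the full control effect; the text of the record puts the active cut at -80%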
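Calcium fluorescence in TRPML1-DL cells induced overnight with Tet: a 110 s read after compound pin addition, then a 110 s antagonist read after challenge with 54-4 at 4 uM final (EC80).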
Menin-MLL FL inh – inhibitors of human menin-MLL interaction, wild-type MLL peptide | 290,000 tested, under 10 active | FP activity change, % at 61.4 µM | Fluorescence polarization, fluorescein-MLL peptide displacement from menin; inconclusive = falling polarisation curve, or a change in total fluorescence; inactive = total fluorescence flat and polarisation flat or rising; no compound was filed as active; the % refers to the polarisation; negative = inhibition;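 also: % of control where 0% means no effect; inhibitors lower the polarisation; unlabelled MLL peptide was the positive control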
ClpP mod – qHTS Assay for Activators of ClpP. AID 651965, 2013. ATP-dependent Clp protease proteolytic subunit (Bacillus subtilis (strain 168)), P80244. purified B. subtilis ClpP, FRET peptide cleavage, 20 min. 340,000 compounds, 1.9% hits. Potency, µM (series often up to 57.5 µM), for inactives: top-dose activity change, negative = active; active = well fitted falling curve with a large enough effect; inconclusive = small, poorly fitted or top-dose-only effect; inactive = no such curve, though single readings can be large or run the other way; also: potency is read from the fitted curve at half-maximal effect; the source files actives as falling curves though it sought activators and does not explain the sign; nearly all actives have a fitted effect of over 65% in size; many hits overshoot -100%
Target sequence (P80244 whole entry, looked up): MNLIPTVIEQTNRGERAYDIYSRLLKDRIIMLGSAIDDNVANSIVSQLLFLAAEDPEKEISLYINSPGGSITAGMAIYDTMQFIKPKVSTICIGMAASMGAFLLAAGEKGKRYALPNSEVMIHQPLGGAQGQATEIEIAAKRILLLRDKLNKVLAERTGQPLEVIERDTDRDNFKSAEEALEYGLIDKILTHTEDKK
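Purified B. subtilis ClpP, 10 microg/mL final in Tris/HCl pH8 with KCl, BSA, glycerol and Tween-20, cleaved an Abz/nitrotyrosine-quenched decapeptide. Fluorescence (ex 320, em 430) was read at 0 and 20 min at room temperature. Delta was normalized to 5.8 microM ADEP and DMSO/no-enzyme controls.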
TRPV1 PAM – enhances activation of the human vanilloid receptor TRPV1; Q8NER1; TRPV1-expressing cells, Fluo-8 calcium influx, capsaicin EC20 potentiation; host cell line not named in the record; control for the full effect not named in the record; potentiation, % at 8.33 µM; 320,000 compounds, 0.02% hits; active means potentiation above 80%; inconclusive means 30% to 80%; inactive means below 30%; also: 0% is about no effect
Target sequence (Q8NER1 whole entry, looked up): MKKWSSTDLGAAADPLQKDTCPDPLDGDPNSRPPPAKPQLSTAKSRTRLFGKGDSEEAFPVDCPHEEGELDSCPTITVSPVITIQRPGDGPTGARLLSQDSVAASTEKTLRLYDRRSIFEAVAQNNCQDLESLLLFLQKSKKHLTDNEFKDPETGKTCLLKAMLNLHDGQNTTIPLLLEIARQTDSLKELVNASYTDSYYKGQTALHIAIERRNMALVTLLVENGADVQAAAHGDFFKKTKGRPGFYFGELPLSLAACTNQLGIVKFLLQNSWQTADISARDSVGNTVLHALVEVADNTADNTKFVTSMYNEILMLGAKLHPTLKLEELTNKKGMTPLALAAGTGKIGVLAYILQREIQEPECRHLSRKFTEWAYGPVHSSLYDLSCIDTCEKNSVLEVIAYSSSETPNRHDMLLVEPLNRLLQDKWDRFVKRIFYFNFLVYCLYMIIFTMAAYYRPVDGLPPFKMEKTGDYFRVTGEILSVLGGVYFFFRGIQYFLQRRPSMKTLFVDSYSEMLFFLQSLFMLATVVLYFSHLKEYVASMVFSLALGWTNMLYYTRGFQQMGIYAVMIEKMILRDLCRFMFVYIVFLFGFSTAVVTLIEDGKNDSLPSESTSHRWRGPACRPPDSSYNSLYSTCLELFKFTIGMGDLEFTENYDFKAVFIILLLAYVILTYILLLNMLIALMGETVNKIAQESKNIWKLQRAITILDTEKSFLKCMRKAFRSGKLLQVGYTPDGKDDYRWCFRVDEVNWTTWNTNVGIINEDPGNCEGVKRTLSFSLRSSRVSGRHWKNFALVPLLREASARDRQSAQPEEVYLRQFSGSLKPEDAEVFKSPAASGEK
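TRPV1-expressing cells were cultured overnight at 35.5C and loaded with Fluo-8 calcium dye for 40 to 90 min at room temperature. After a 10 s baseline, compound was added and calcium influx was read kinetically for 3 min (ex 480/em 520 nm).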
Sfp inh – inhibitors of Bacillus subtilis Sfp phosphopantetheinyl transferase | Q9F4F7 | Biochemical Sfp PPTase activity, qHTS | 310,000 compounds, 3.5% hits | AID 1490 | Potency, µM, for inactives: max response, negative = inhibition, most hits filed as inhibitors; active = well fitted inhibition curve with a large enough effect; inconclusive = small, poorly fitted or top-dose-only effect, or another doubt; inactive = no such curve, though single readings can be large or run the other way;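 also: the enzyme is Sfp with the accession as filed and its product quenches rhodamine fluorescence; potency is read from the fitted curve at half-maximal effect; 0% = enzyme reaction without inhibitor and -100% = no enzyme wells; top concentration of the series not given in the record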
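Buffer: 50 mM Hepes-Na pH 7.6, 10 mM MgCl2, 0.01% Nonidet P-40, 0.01% BSA. Enzyme 15 nM, pre-exposed to compound 15 min; substrates then added and fluorescence change tracked over 30 min.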
gsp antag – gsp mutant antagonism | gsp-mutant cells, cAMP HTRF, 30 min; control for the full effect not named in the record | Potency, µM (highest dose often 76.9 µM), for inactives: top-dose activity change, negative = inhibition, actives largely listed as inhibitors | 340,000 compounds, 0.4% hits | AID 624288; active = falling curve of any shape with a large fitted effect; inconclusive = falling curve, mostly with a smaller effect; inactive = flat or rising curve; cell line not stated here;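 also: intracellular cAMP measured with PDE inhibitor Ro 20-1724 present during compound exposure; potency is read from the fitted curve at half-maximal effect; % is scaled to controls: 0 for no effect and ±100 for the full control effect; nearly all actives have a fitted effect of over 65% in size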
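Cells, 2000/well, grown 16–24 h in DMEM 10% FBS with 0.5 mg/ml G418, then compounds plus […] (300 uM addition stock), 30 min at 37C. cAMP read by HTRF (cAMP-d2 and anti-cAMP antibody-K in lysis buffer) after 30 min RT.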
gsp agonist – agonists of gsp mutant (McCune-Albright syndrome) | gsp mutant cells, cAMP HTRF, 30 min; control for the full effect not named in the record | Potency, µM (series often up to 76.9 µM), inactives show at the top dose activation (cAMP increase), most hits filed as activators | 340,000 compounds, 0.13% hits | AID 624287; active = well fitted activation curve with a large enough effect; inconclusive = small, poorly fitted or top-dose-only effect, or another doubt; inactive = no such curve, though single readings can be large or run the other way; cell line not stated here;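 also: phosphodiesterase inhibitor Ro 20-1724 added with compounds to block cAMP breakdown; potency is read from the fitted curve at half-maximal effect; nearly all actives have a fitted effect of over 60% in size; about a fifth of the inactives were tested at one dose only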
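Cells stably selected in G418 were plated at 2000/well, grown 16-24 hr, then given compounds in DMSO with the PDE inhibitor […] (300 uM solution added) for 30 min at 37C; cAMP was read by HTRF.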
An asterisk follows results filed as active; ? = inconclusive; · = not tested or not shown; & = joins results of further samples; [ ] = another dose, or the depositor's remark.

SMILES	TRPML1 blocker	Menin-MLL FL inh	ClpP mod	TRPV1 PAM	Sfp inh	gsp antag	gsp agonist
CCn1c(N)c(C(=O)NC2CCCCC2)sc1=S	1	-0.3	-1.2%	-48	4%	6%	1%
Cc1nc([N+](=O)[O-])cn1CC(O)c1ccc(-c2ccccc2)cc1 (centres undefined)	6	1.7	-1.0%	-6	-2%	-5%	-2%
Cc1ccccc1NC(=O)CCCSc1nc2ccccc2s1	3	3.7	1.8%	-1	-4%	-11%	7%
CCCCCCCCCC(=O)OCC(O)CO (centres undefined)	-1	-5.3	0.5%	-17	9%	-4%	·
CCCC(C)C(=O)Nc1ccc(NC(C)=O)cc1 (centres undefined)	22	3.7	1.4%	-9	-6%	12%	-20%
Cc1nnc(NC(=O)c2ccco2)s1	-6	1.1	-1.6%	-5	12%	6%	-2%
COc1ccc(-n2c(CN3CCN(c4ccc(F)cc4)CC3)nc3ccc([N+](=O)[O-])cc3c2=O)c(OC)c1	-9	-1.8	·	?	-20%	-4%	-7%
Cc1ccc(C)n1-c1ncc(Br)cn1	7	3.2	·	13	-3%	7%	-10%
C=CCSc1nnc(CNC(=O)c2ccc(Cl)cc2)n1CC	7	-0.8	0.3%	9	15%	2%	6%
COC(=O)Cc1ccc(NC(=S)N2CCN(c3ccc(OC)cc3)CC2)cc1	3	4.3	1.5%	10	16%	10%	-17%
COc1cc(Cl)c(C)cc1NC(=O)CCCN1C(=O)CCC1=O	10	2.8	1.4%	3	13%	-3%	-40%[inhibitor]
CC(C)NCC1CCc2cc(CO)c([N+](=O)[O-])cc2N1 (centres undefined)	8	-2.6	0.3%	5	14%	?	·
CC(C)c1ccc(NC(=O)COc2ccccn2)cc1	-4	-2.4	·	17	16%	14%	-1%
COc1ccc(C(=O)C[n+]2ccccc2C)cc1	5	0.0	1.0%	10	-14%	25%	-52%[inhibitor]
Oc1ccccc1/C=N/Nc1nccnc1Cl	26	-0.1	0.0%	-13	10%	-7%	16%
O=c1[nH]nc(SCc2nnc(-c3cccc(Cl)c3)o2)n1C1CCCCC1	-6	1.6	1.4%	·	5%	-14%	-4%[15.4 µM]
CCCNC(=S)N1CCC(NC(=O)C2CCCCC2)CC1	-6	0.9	0.5%	3	7%	-16%	-16%
O=C(NCc1ccc(Cl)cc1)c1ccc(CSc2nc3ccncc3[nH]2)cc1	8	-0.1	·	12	4%	-28%	-9%[15.4 µM]
COc1cc(CN2CCNC(=O)C2CC(=O)N2CCCCO2)cc(OC)c1 (centres undefined)	-14	-4.3	·	-20	2%	10%	-33%
O=C(Nc1cccc(Cl)c1)N1CCN(Cc2ccccc2)CC1	-14	-1.5	-5.5%	0	17%	1%	19%
CCC1Oc2ccccc2N(CC(=O)NCCc2ccc(OC)c(OC)c2)C1=O (centres undefined)	-12&17	-1.2	-0.9%&1.6%	-10	-9%	-15%	-6%
c1cncc(-c2nc3cc(Cc4ccc5oc(-c6cccnc6)nc5c4)ccc3o2)c1	·	1.7	·	3	19%	·	·
CCn1cc(-c2ccnc3cc(C(=O)O)nn23)c(C)n1	-3	3.4	·	5	13%	6%	25%
CCOC(=O)CCCNc1ccc([N+](=O)[O-])cc1[N+](=O)[O-]	-10	1.3	-5.0%	24	3%	13%	21%
Cc1ccccc1C(=O)N1CCN(c2ccc([N+](=O)[O-])c(NCc3ccco3)c2)CC1	17	0.7	-1.5%	9	-11%	-13%	-14%
O=C(Nc1scc(-c2ccccc2)c1C(=O)O)c1ccccc1Cl	0	-1.6	·	-8	6%	-17%	-44%[inhibitor]
Cc1ccc(C(=O)Nc2c(C)n(C)n(-c3ccccc3)c2=O)cc1S(=O)(=O)N1CCCCC1	32	·	-0.5%	·	·	-15%	6%
COc1cc(C(=O)NCCC(=O)NC2CCC(C)CC2)cc(OC)c1OC (centres undefined)	41	0.5	-0.9%	0	10%	9%	26%
Cc1c(C=O)n(C)n(-c2ccccc2)c1=O	0	-5.7	·	1	20%	2%	3%[15.4 µM]
O=C(NNC(=O)C1C2CCC(C2)C1C(=O)O)c1cccc(Cl)c1 (centres undefined)	3	0.2	·	-11	-9%	8%	5%
Cc1ccc(C(=O)c2coc3ccc(O)c(Cl)c23)cc1	-4	-0.9	-1.1%	-1	-3%	-6%	15%
COC(=O)c1ccc(NC(=O)c2ccc3c(c2)C(=O)N(Cc2cccnc2)C3=O)cc1	20	·	1.0%	4	-8%	40µM*	1%
CC1CN(C(=O)COc2ncnc3ccccc23)CC(C)O1 (centres undefined)	-14	-1.2	-2.4%	17	20%	3%	8%
Cc1ccccc1NC(=S)Nn1cnnc1	-11	·	-1.3%	-4	22µM*	6%	15%
COc1cc(-c2nnc3sc(-c4ccncc4)nn23)cc(OC)c1OC	10	·	-1.3%	·	·	-4%	?
O=C(NN=Cc1c[nH]c2ccccc12)NN=Cc1c[nH]c2ccccc12	-2	·	0.8%	·	·	·	?
COc1cccc(-c2nc(-c3ccc(NC(=O)c4ccncc4)cc3)no2)c1	-10	3.3	?	-4	26%	6%	-1%
O=C(NCC1CCCO1)C1CCN(S(=O)(=O)c2cc(Cl)ccc2Cl)CC1 (centres undefined)	0	?	·	7	14%	-24%	14%[15.4 µM]
CC(C)n1c(-c2ccco2)csc1=Nc1cccnc1	23	0.4	-1.5%	-3	-13%	?	4%
CC1C(=O)N(Cc2cn(Cc3ccco3)nn2)CCS(=O)(=O)N1Cc1ccc(-c2ccc(Cl)c(Cl)c2)cc1 (centres undefined)	8	·	0.1%	·	·	·	20%
CCCNC(=O)c1ccc2c(c1)S(=O)(=O)c1ccccc1C2=O	31	-0.2	-1.5%	-7	3%	9%	-36%[inhibitor]
CC(=O)c1cc2c(cc1NS(=O)(=O)c1ccc3c(c1)OCCO3)OCO2	0	3.6	-1.9%	4	-4%	-1%	-28%
Cc1nccn1CC(O)COC1CCCCC1 (centres undefined)	-14	1.2	2.6%	-3	-6%	5%	2%
Cc1ccc(S(=O)(=O)NCc2ccncc2)cc1	-12	-0.1	-2.7%	0	19%	3%	6%
N#C/C(=C(\O)Cc1ccccc1)c1nc2ccccc2[nH]1	-3	-1.8	-21%	0	-16%	9%	-24%
CC(C)CCN1CCN(Cc2ccc(C#CC(C)(C)O)s2)CC1CCO (centres undefined)	-6	-1.6	-1.8%	-11	7%	7%	5%[15.4 µM]
Cc1onc(-c2ccccc2Cl)c1C(=O)N1CCC(Cc2ccccc2)CC1	46	·	·	0	7%	?	10%
COc1cc(OC)cc(C(=O)NCc2cccnc2)c1	-29	3.9	-7.0%	-1	-1%	5%	18%
Cc1ccc(N2C(=O)CC(N3CCN(C)CC3)C2=O)cc1 (centres undefined)	·	2.0	·	10	11%	·	·
CC(C)CCN1C(=O)c2ccc(C(=O)Nc3c[nH]c(=O)[nH]c3=O)cc2C1=O	-3	0.5	5.8%	-29	4%	-3%	-57%[inhibitor]
CC(=O)C(/C=N/c1cc(-c2ccc(C)cc2)nn1-c1ccccc1)=C(\C)O	-9	7.6	-1.2%	-3	-26%	13%	10%
N#CC(=C=[N-])c1nc2ccccc2nc1-[n+]1cccc(NC(=O)c2cccs2)c1	13	?	2.1%	-4	0%	-5%	-22%
Cc1cc(Oc2cccc3c2S(=O)(=O)N(C2CCCC2)CC(COCc2ccccc2)O3)cc(C)c1C (centres undefined)	0	·	-3.3%	·	·	9%	·
Cc1c(C)n(C)c2ccc(C(=O)Nc3cccc4ccccc34)cc12	30	6.7	?	·	-11%	-8%[15.4 µM]	7%
Cc1cc2nc(CCl)cc(=O)n2[nH]1	-13	-0.9	·	3	-8%	1%	-32%[inhibitor]
COc1ccc(-n2c(=O)[nH]cc(C(=O)Nc3ccc4c(c3)OCO4)c2=O)cc1OC	-7	5.5	-2.3%	10	1%	-15%	?
CCCn1c(SCC(=O)N(C)C2CCS(=O)(=O)C2)nc2sc3c(c2c1=O)CCC3 (centres undefined)	-18	·	1.4%	·	·	?	-2%[15.4 µM]
CC(CCc1ccccc1)NC(=O)COC(=O)C(CCC(N)=O)NC(=O)c1ccc(F)cc1 (centres undefined)	-4	·	-1.1%	-23	·	2%	5%
CCC(C)N(C)C1CCN(C(=S)Nc2cccc(SC)c2)CC1 (centres undefined)	9	0.7	·	-2	56µM*	11%	23%[15.4 µM]
CC1(C)CC(N2CCCC2)=CC(=[N+]2CCCCCC2)C1	9	-3.7	-3.2%	-10	-2%	0%	?
Continuation.
SMILES	TRPML1 blocker	Menin-MLL FL inh	ClpP mod	TRPV1 PAM	Sfp inh	gsp antag	gsp agonist
O=C(c1ccc(Cl)cc1)N1CCC(C(=O)N2CCN(c3ncccn3)CC2)CC1	-14	·	-11%	3	·	-1%	-2%
CCOC(=O)C1(CCCc2ccccc2)CCN(Cc2cnc(C)s2)CC1	58	1.1	·	-24	12%	·	-1%[15.4 µM]
COc1ccc(OCCCC(=O)NNC(=O)c2ccncc2)cc1	8	·	-0.8%	-11	·	14%	-52%[inhibitor]
COc1cccc(C2C(C#N)=C(N)Oc3cc(C)n(Cc4ccccn4)c(=O)c32)c1OC (centres undefined)	1	1.2	-3.1%	13	11%	4%	18%
CCC(C)[C@H](NC(=O)[C@@H]1CSC2c3ccccc3C(=O)N21)C(=O)NCC1CCCO1 (some centres undefined)	3	·	1.2%	9	2%	-9%	-8%
CC1CN(C(=O)/C=C/c2ccc(SC(F)F)cc2)CC(C)O1 (centres undefined)	-5	1.2	·	17	5%	-4%	17%
CCN1CCN(CC(=O)Nc2cccc(C)c2C)C(=O)C1=O	1	1.1	1.3%	11	20%	9%	-57%[inhibitor]
CC(C)n1c(N2CCN(C(=O)N3CCCCC3)CC2)nc2ccccc21	-6	-0.3	-0.6%	-10	2%	-13%	-5%
